# Screens as filed in PubChem BioAssay.
# TRPML1 blocker: qHTS for Inhibitors of the Human Mucolipin Transient Receptor Potential 1 (TRPML1). TRPML1-inducible cells, Ca2+ dye fluorescence, FDSS; active compounds read low; inhibition of EC80 agonist-evoked calcium signal. activity change, negative = inhibition, % (concentration not given with the values). 390,000 tested, 0.02% active. Mucolipin-1 (Homo sapiens), Q9GZU1; in the data active means activity change below about -50%; inconclusive means about -30% to -50%; inactive means above about -30%;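 note: stimulus is agonist 54-4 at its EC80 concentration; % is set by controls: 0 for no effect and ±100 for the full control effect; the text of the record puts the active cut at -80%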
# Target sequence (Q9GZU1 whole entry, looked up): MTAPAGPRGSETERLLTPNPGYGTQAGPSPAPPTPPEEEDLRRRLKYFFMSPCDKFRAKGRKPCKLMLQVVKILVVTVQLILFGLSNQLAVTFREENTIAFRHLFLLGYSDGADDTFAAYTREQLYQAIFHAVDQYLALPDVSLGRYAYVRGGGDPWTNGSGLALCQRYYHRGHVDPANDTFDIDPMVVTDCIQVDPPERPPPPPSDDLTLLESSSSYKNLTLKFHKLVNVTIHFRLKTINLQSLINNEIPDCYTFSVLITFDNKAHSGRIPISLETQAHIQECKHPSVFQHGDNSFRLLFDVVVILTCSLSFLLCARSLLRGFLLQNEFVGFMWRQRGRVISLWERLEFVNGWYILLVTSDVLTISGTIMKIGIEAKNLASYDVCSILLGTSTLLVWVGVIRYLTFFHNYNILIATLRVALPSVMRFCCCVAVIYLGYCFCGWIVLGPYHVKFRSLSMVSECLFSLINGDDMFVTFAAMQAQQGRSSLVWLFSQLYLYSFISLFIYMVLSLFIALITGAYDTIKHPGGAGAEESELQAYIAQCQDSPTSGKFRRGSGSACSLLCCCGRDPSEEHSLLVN
#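 Tet-induced TRPML1-DL cells loaded with Ca8 no-wash calcium dye were read kinetically on FDSS. Compound addition was followed by EC80 agonist 54-4 (4 uM final); inhibition was read over 110 s.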
# ClpP mod: qHTS Assay for Activators of ClpP; purified B. subtilis ClpP, FRET peptide cleavage, 20 min; Potency, µM (series often up to 57.5 µM), inactives show top-dose activity change, negative = active; 340,000 tested, 1.9% active; active = well fitted falling curve with a large enough effect; inconclusive = small, poorly fitted or top-dose-only effect; inactive = no such curve, though single readings can be large or run the other way; note: potency is the fitted concentration of half-maximal effect; the source files actives as falling curves though it sought activators and does not explain the sign; nearly all actives have a fitted effect of over 65% in size; many hits overshoot -100%
# Target sequence (P80244 whole entry, looked up): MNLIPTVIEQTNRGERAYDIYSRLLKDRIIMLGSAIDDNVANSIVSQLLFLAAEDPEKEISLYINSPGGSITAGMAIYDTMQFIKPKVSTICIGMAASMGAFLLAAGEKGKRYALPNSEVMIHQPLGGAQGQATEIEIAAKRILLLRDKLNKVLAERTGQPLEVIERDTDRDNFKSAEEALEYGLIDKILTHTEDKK
#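 FRET quenching reversal measured ClpP activation: 10 microg/mL B. subtilis ClpP at pH 8 with the FRET-FV decapeptide, read at 430 nm after 320 nm excitation. The 20-min minus 0-min signal was scaled between DMSO/no-enzyme wells and ADEP (5.8 microM final).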
# gsp agonist: qHTS for Agonist of gsp, the Etiologic Mutation Responsible for Fibrous Dysplasia/McCune-Albright Syndrome: qHTS; gsp mutant cells, cAMP HTRF, 30 min; control for the full effect not named in the record; Potency, µM (doses to about 76.9 µM), inactives show top-dose activation (cAMP increase), hits mostly activators; 340,000 tested, 0.13% active; AID 624287, 2012; active = well fitted activation curve with a large enough effect; inconclusive = small, poorly fitted or top-dose-only effect, or another doubt; inactive = no such curve, though single readings can be large or run the other way; cell line not stated here;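 note: phosphodiesterase inhibitor Ro 20-1724 added with compounds to block cAMP breakdown; potency is the fitted concentration of half-maximal effect; nearly all actives have a fitted effect of over 60% in size; about a fifth of the inactives were tested at one dose only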
#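 Cells stably selected in G418 were plated at 2000/well, grown 16-24 hr, then given compounds in DMSO with the PDE inhibitor […] (300 uM solution added) for 30 min at 37C; cAMP was read by HTRF.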
# Menin-MLL FL inh: qHTS Assay for Inhibitors Targeting the Menin-MLL Interaction in MLL Related Leukemias: Competition With Fluorescein Labeled MLL-derived Peptide | Fluorescence polarization, fluorescein-MLL peptide displacement from menin | FP activity change, % at 61.4 µM | 290,000 tested, under 10 active | AID 1766, 2009; inconclusive = falling polarisation curve, or a change in total fluorescence; inactive = total fluorescence flat and polarisation flat or rising; no compound was filed as active; the % refers to the polarisation; negative = inhibition;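 note: % of control where 0% means no effect; inhibitors lower the polarisation; unlabelled MLL peptide was the positive control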
# TRPML1 ag: qHTS for Agonists of the Human Mucolipin Transient Receptor Potential 1 (TRPML1) | Mucolipin-1 (Homo sapiens), Q9GZU1 | TRPML1-expressing cells, Ca2+ dye fluorescence, FDSS; host cell line not named in the record; reference of the full effect not given here | activation, % (no concentration beside the values) | 410,000 tested, 0.12% active | AID 624414, 2012; in the data active = activation above about 50%; inconclusive = about 30% to 50%; inactive = below about 30%; note: 0% is about no effect; the text of the record puts the active cut at 80%
#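 In this qHTS format, compounds were pin-transferred onto Ca8-dye-loaded TRPML1-DL cells induced with Tet overnight, and intracellular Ca2+ fluorescence was recorded kinetically for 110 s after a 10 s baseline. A subsequent 4uM final 54-4 (EC80) addition followed by a second 110 s read served as the antagonist phase.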
# gsp antag: qHTS for Antagonists of gsp, the Etiologic Mutation Responsible for Fibrous Dysplasia/McCune-Albright Syndrome: qHTS | gsp-mutant cells, cAMP HTRF, 30 min; control for the full effect not named in the record | Potency, µM (titrated, usually from 76.9 µM), without a hit: at the top dose activity change, negative = inhibition, actives largely listed as inhibitors | 340,000 tested, 0.4% active; active = falling curve of any shape with a large fitted effect; inconclusive = falling curve, mostly with a smaller effect; inactive = flat or rising curve; cell line not stated here;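 note: intracellular cAMP measured with PDE inhibitor Ro 20-1724 present during compound exposure; potency is the fitted concentration of half-maximal effect; % is set by controls: 0 for no effect and ±100 for the full control effect; nearly all actives have a fitted effect of over 65% in size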
#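 G418-selected cells were plated in DMEM/10% FBS for 16-24 h at 37C, then treated with compounds plus the PDE inhibitor […] (300 uM solution added) for 30 min at 37C. Intracellular cAMP was measured by HTRF after 30 min lysis at room temperature.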
# * = called active by the depositor; ? = inconclusive; nt = not tested or not shown; [ ] = remark or other dose.
SMILES,TRPML1 blocker,ClpP mod,gsp agonist,Menin-MLL FL inh,TRPML1 ag,gsp antag
O=C(NCCCNCc1ccccc1)c1ccc(/C=N/O)nc1,-9.3,-2.1%,-43.3%[inhibitor],-0.5,-0.8,3.2%
Cc1ccc(NC(=O)c2oc3ccc(S(=O)(=O)N4CCCCC4)cc3c2C)cc1C,-1.4,13.0%,nt,nt,-0.7,nt
Cn1nc(C(C)(C)C)cc1C(=O)O,26.0,-0.9%,-5.6%,-0.6,0.8,-0.7%
COc1ccc(C(C(=O)NC2CCCCC2)N(C(=O)c2sc(C)nc2C)c2ccc(C(C)=O)cc2)cc1 (stereo unspecified),-0.7,-7.6%,3.7%,-1.3,-0.4,-2.8%
CNc1oc(-c2ccc(COc3ccc(C)cc3)o2)nc1C#N,-6.3,?,nt,nt,0.6,nt
CCN(CC)C(=O)c1ccc(NS(=O)(=O)c2ccccc2)cc1,-0.9,2.0%,-12.0%[15.4 µM],-5.0,0.7,-7.2%
O=C(Cc1ccc(Cl)cc1)NNC(=O)c1cnccn1,24.0,1.1%,6.3%[15.4 µM],nt,-0.1,1.2%
Cc1ccc(S(=O)(=O)N2CCC(=O)N(C(COCc3ccc(Cl)cc3Cl)Cc3ccccc3)CC2)cc1 (stereo unspecified),12.9,0.0%,nt,-0.3,-1.1,-15.2%
O=C(CN1C(=O)NC2(CCCCC2)C1=O)N1CCN(c2ncccn2)CC1,-8.9,-15.7%,13.8%,nt,0.9,9.0%
CCOc1ccc(-c2nnc(SCC(=O)N3CCOCC3)o2)cc1,5.2,-21.6%,-64.7%[inhibitor],1.3,-0.7,8.6%
Cc1ccc(NS(=O)(=O)c2c(C)[nH]c(=O)[nH]c2=O)cc1C,3.0,0.4%,13.8%,-0.2,-0.3,14.7%
Nc1c(N(CCCO)C(=O)C2CCCC2)c(=O)[nH]c(=O)n1Cc1ccccc1,-7.3,0.1%,-6.3%,nt,1.5,21.8%
COc1ccccc1N1CCN(CC(O)COc2cc(C)cc(C)c2)CC1 (stereo unspecified),-9.0,-3.0%,nt,nt,1.2,nt
CC(=O)N1CCC(C(=O)NCCOc2cccc(C)c2)CC1,8.8,nt,10.8%,-1.2,0.4,-11.0%
Cc1cc(C)n(CCNC(=O)c2ccc3c(c2)OCO3)n1,6.1,nt,-5.8%,0.7,1.0,6.2%
CN1N=C(N)c2cn(C3OC(COP(=O)(O)O)C(O)C3O)c3ncnc1c23 (stereo unspecified),18.7,-2.7%,?,nt,1.0,-4.1%
CN=C(c1ccccc1)c1c(C)cccc1C,?,-0.4%,8.8%,0.9,0.1,-5.3%
CCO[C@@H]1OC(C(=O)N2CCN(C)CC2)=C[C@H](c2csc3ccccc23)[C@H]1CCCO,12.2,-0.9%,-0.3%,-0.2,0.2,6.7%
Cc1occc1C(=O)Nc1ccc(OCc2ccccc2)cc1,-2.4,nt,11.4%[15.4 µM],1.7,1.7,-3.8%
O=C(O)COc1ccc(Nc2ccccc2)cc1,-3.8,nt,-2.3%[15.4 µM],-4.2,0.8,nt
COC(=O)c1[nH]c2ccc(C)cc2c1NC(=O)CN1CCC(C)CC1,0.5,28.2µM*,-1.1%,2.2,1.1,-5.7%
COc1ccc(N2C(=O)C(CC(=O)Nc3ccc(F)cc3)N(Cc3ccc4c(c3)OCO4)C2=O)cc1 (stereo unspecified),-15.2,0.0%,nt,nt,0.2,nt
Cc1ccc(-n2c(=O)c3ccc(C(=O)NCc4ccco4)cc3n(Cc3ccc(Cl)cc3)c2=O)cc1,-10.9,-15.6%,nt,nt,0.0,nt
Cc1ccc(SCC(=O)NC2CCS(=O)(=O)C2)cc1 (stereo unspecified),-13.5,nt,?,-0.1,0.1,6.5%
COc1ccc(-c2n[nH]c(C)c2-c2ccc(OC)c(OC)c2)c(O)c1,51.0,-12.2%,?,1.3,1.8,-6.4%
CN(C)CCCN=C(NO)c1ccc(Cl)cc1Cl,13.1,nt,-31.6%[inhibitor],6.4,-1.1,8.6%
O=C(CSc1ccc(Br)cc1)NCC1(N2CCCCC2)CCCCC1,-0.4,-2.4%,?,nt,1.2,5.5%
CCc1ccc(-c2ccc3nnc(SC)n3n2)cc1,4.0,-8.4%,12.5%,0.1,2.5,3.2%
O=C(Cc1c(F)cccc1Cl)Nc1cccc(S(=O)(=O)NC2=NCCCCC2)c1,20.6,3.1%,9.5%,nt,0.2,1.4%
COC(=O)Cn1ncc(N2CC(C)OC(C)C2)c(Cl)c1=O (stereo unspecified),39.1,nt,-0.8%[15.4 µM],0.9,-0.8,-7.8%
COc1ccccc1NC(=O)CSC1=Nc2ccccc2C2=NC(CCC(=O)NCCc3ccccc3)C(=O)N12 (stereo unspecified),-8.1,-1.1%,nt,nt,0.7,nt
Cc1ccc2ccc3ccc(C)nc3c2n1,0.6,-3.3%,nt,-1.0,-0.3,-6.5%
O=C(NNC(=O)c1cc(C(F)(F)F)cc(C(F)(F)F)c1)c1ccc(Cl)cc1,6.9,nt,2.4%[15.4 µM],4.9,0.1,-1.9%
COc1ccc(C2=NN(C(=O)C(O)c3ccccc3)C(O)(C(F)(F)F)C2)cc1 (stereo unspecified),-5.8,nt,-22.3%,1.0,0.9,6.6%
O=c1[nH]c(N2CCOCC2)nc2ccccc12,8.9,4.8%,-11.6%,-1.4,-0.2,5.3%
Cc1ccccc1Nc1c(-c2ccccc2O)nc2sccn12,-16.5,0.2%,nt,nt,1.6,nt
COc1ccc(/C=C/C(=O)OCC(=O)Nc2ccc(Cl)cc2F)cc1S(=O)(=O)N1CCOCC1,17.5,-1.0%,?,-0.8,0.9,-11.9%
Cc1noc2ncnc(Oc3ccc(C(C)(C)C)cc3)c12,-10.0,5.6%,19.8%,2.2,-0.4,5.5%
Cc1ccccc1N1CC(C(=O)Nc2ccc(S(=O)(=O)N3CCCCC3)cc2)CC1=O (stereo unspecified),-4.7,0.6%,4.2%[15.4 µM],-0.6,-0.3,-6.1%
Cn1c(CNC(=O)c2ccc3c(c2)OCO3)nnc1SCC(=O)Nc1ccc(F)cc1,45.2,nt,-4.8%[15.4 µM],3.5,-0.7,6.4%
Cn1c(C(=O)NCc2cccnc2)cc2sccc21,-0.4,0.7%,-31.8%[inhibitor],3.7,0.0,-2.2%
O=C(NC1CCCCC1)c1cc2nc(-c3ccco3)cc(C(F)(F)F)n2n1,11.6,-13.3%,-11.2%,-1.3,3.2,-22.0%
CCC1CCCCN1CCCNC(=O)c1ccc2c(c1)sc1nc(-c3ccc(F)cc3)cn12 (stereo unspecified),9.6,-25.4%,nt,nt,0.0,nt
O=C(N/N=C/c1ccc[nH]1)c1ccccc1OCc1ccc(F)cc1,11.4,nt,-2.5%,-2.9,1.1,5.9%
CN(CCCCCCN(C)Cc1ccccc1O)Cc1ccccc1O,nt,-0.2%,4.3%,-7.8,nt,2.5%
CCS(=O)(=O)c1nc(S(=O)(=O)c2ccc(Cl)cc2)c(NCc2ccc(Cl)cc2)s1,45.4,-1.9%,nt,nt,0.6,nt
COC(=O)c1cn(NC(=O)Cc2cccc(C(F)(F)F)c2)c(=O)c2ccccc12,1.3,0.5%,3.7%[15.4 µM],-1.3,-0.2,-17.6%
CCn1nc(C)c(CNC(=O)c2cc(COc3cncc(Cl)c3)on2)c1C,-5.5,-1.3%,?,-0.6,0.3,3.9%
N#Cc1cccc(S(=O)(=O)NCC(=O)NCc2ccc3c(c2)OCO3)c1,-3.9,-1.5%,-6.4%,nt,-0.5,16.9%
Cc1ccc(N(Cc2ccccc2)C(=O)c2cccc(F)c2)cc1,-4.9,-0.6%,-26.6%,nt,3.8,-25.2%
CCOc1ccc(C2=Nn3c(nnc3-c3ccccc3)SC2)cc1Cl,14.1,0.5%,6.1%,5.6,-0.3,-6.2%
COc1ccc(-c2cc(C#N)nc(Cl)n2)cc1,-9.3,0.0%,10.5%[15.4 µM],-5.9,-0.1,-1.7%
COCCn1c(-c2ccc(OC)cc2)nc2ccccc21,11.0,?,17.2%,-0.4,4.5,-18.0%
CC(=O)Nc1ccc(OCC(O)Cn2nc(C)nc2C)cc1 (stereo unspecified),-4.1,-6.3%,-5.8%,4.2,0.1,2.9%
COc1nc(=O)n(C2C=CC(=O)O2)cc1F (stereo unspecified),-8.0,-1.1%,21.0%,nt,-0.3,nt
CN(Cc1ccc(Cl)cc1Cl)C(=O)c1cccc(S(=O)(=O)NCc2ccccc2)c1,7.3,-19.5%,-14.4%,nt,3.5,-11.0%
COC(=O)c1sc2nc(SCC(=O)N(C)c3ccccc3)n(N)c(=O)c2c1C,-23.6,0.1%,-2.0%,1.0,0.4,0.1%
O=C(Nc1ccccc1F)Nc1ccccc1F,16.8,0.4%,?,0.7,0.9,-5.6%
CCSc1nnc(NC(=O)CSc2c(Cl)cccc2Cl)s1,-3.3,-1.1%,-15.8%,-2.2,-0.6,-1.6%
COc1ccc(OC(=O)Cc2cccc3ccccc23)cc1,39.0,-1.8%,-0.6%,0.0,1.5,-8.2%

# Further structures
SMILES,TRPML1 blocker,ClpP mod,gsp agonist,Menin-MLL FL inh,TRPML1 ag,gsp antag
CCCOc1ccccc1C1C(C(=O)Nc2ccccc2)=C(C)Nc2nnnn21 (stereo unspecified),1.3,-3.0%,nt,nt,8.7,nt
O=C(CN(CC(=O)N1CCOCC1)S(=O)(=O)c1ccc(Br)s1)N1CCOCC1,3.1,-3.3%,9.0%,nt,-0.5,8.3%
COc1ccccc1Cn1c(CNS(=O)(=O)c2c(C)cc(C)cc2C)nc2cccnc21,-15.2,-6.4%,nt,nt,-0.1,nt
CCc1ccccc1NC(=O)NCc1ccc2c(c1)OCO2,-9.8,-1.2%,2.9%[15.4 µM],-0.6,0.4,6.3%
CC(=O)Nc1ccc2c(c1)nc(C)n2Cc1ccccc1,5.2,0.0%,-29.4%,-3.0,-0.8,-1.7%
COCCNC(=S)N1CCc2cc(OC)c(OC)cc2C1c1cccs1 (stereo unspecified),-6.8,nt,2.1%,-0.5,0.4,3.1%
Cc1ccc2nc(C3CCN(CC(=O)Nc4ccc5c(c4)OCCO5)CC3)[nH]c2c1,15.5,-2.6%,2.5%,0.1,1.6,-4.7%
COc1ccc(S(=O)(=O)N2CCCCCC2)cc1NC(=O)CN(C)Cc1ccc2c(c1)OCO2,-25.6,-3.9%,33.4%,nt,-0.7,11.2%
Cc1cc(NC(=O)CS(=O)(=O)c2cn(Cc3cccc(C(F)(F)F)c3)c3ccccc23)no1,50.2,1.4%,nt,nt,2.5,nt
